Screening results deposited in PubChem by several laboratories.
Rce1 inhib: yeast Rce1p protease inhibitors, primary screen, biochemical, fluorescence, cell-free homogeneous. yeast membranes, quenched prenylated peptide cleavage fluorescence. CAAX prenyl protease 2 (Saccharomyces cerevisiae (strain ATCC 204508 / S288c)), Q03530. 0.27% of 290,000 active. AID 2563, 2010. calls only;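 active means fall in fluorescence gain of 50% or more versus controls, with final raw signal at or below 3038400; inconclusive means same 50% fall but final raw signal above 3038400; inactive means fall in fluorescence gain under 50%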;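 further: plate controls were neutral control wells for no effect and wells lacking membranes for full effect; tested at 10 µM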
MT1-MMP act inh: blockers of MT1-MMP proenzyme processing, primary screen, HT1080 RFP-PRO-GFP cells, GFP/RFP fluorescence | Matrix metalloproteinase-14 (Homo sapiens), P50281 | GFP/RFP ratio fluorescence, overnight; percent of plate control window, DMSO zero | GFP/RFP ratio change, % at 20 µM | 0.061% of 360,000 active | AID 651647, 2012;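 active means GFP/RFP ratio change of at least 30% with cell ATP level not reduced by more than half and red fluorescence within 50% of control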; further: strong numbers were not always called active
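Assay system: HT1080 RFP-PRO-GFP cells. Benchmarks: DMSO vehicle wells and RFP-L50D-GFP reporter cell wells. Times: overnight cell settling, then overnight compound exposure, 37 °C, 5% CO2. Compound: 20 µM single dose, 1% DMSO. Read-out basis: GFP/RFP fluorescence ratio.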
PABP FP inh: PABP poly(A) RNA binding inhibitors, primary screen, biochemical, fluorescence polarization, uHTS; Polyadenylate-binding protein 1 (Homo sapiens), P11940; inhibition, % at 35 µM; 1% of 290,000 active;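 active means 50% or more with normal probe brightness, or confirmed in later tests; inconclusive means above 50% with abnormal brightness, or retests that disagree; inactive means below 50% or failed in later tests; about a fifth of its hits are not listed in these tables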;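 further: calls also rest on retests at 20 µM and on dose response follow-up; controls were probe without protein and protein plus probe with vehicle; some compounds called inactive have numbers as strong as hits; many hits fall short of the cut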
Target sequence (P11940 whole entry, looked up): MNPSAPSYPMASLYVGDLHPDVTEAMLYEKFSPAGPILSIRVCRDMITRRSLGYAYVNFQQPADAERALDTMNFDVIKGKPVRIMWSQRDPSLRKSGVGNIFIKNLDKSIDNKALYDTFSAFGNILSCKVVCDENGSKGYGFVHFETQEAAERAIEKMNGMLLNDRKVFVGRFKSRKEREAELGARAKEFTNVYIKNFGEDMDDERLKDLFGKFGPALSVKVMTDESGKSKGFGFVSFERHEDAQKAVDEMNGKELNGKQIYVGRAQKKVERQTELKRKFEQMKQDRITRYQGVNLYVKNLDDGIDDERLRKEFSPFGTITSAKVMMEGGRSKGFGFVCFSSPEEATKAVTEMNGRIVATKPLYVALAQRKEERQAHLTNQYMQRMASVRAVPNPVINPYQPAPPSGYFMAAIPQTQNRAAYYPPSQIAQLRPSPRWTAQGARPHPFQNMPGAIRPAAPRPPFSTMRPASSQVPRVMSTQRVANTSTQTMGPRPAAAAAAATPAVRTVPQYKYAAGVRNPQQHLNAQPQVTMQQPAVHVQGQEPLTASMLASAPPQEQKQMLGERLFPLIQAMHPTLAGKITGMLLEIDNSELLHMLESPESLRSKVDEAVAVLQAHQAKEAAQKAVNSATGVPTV
HIV Env fusion: inhibitors of HIV-1 Env-driven cell-cell fusion, primary screen, HeLa-JRFL effector, CEM21 target cells, luciferase; inhibition, % at 12.3 µM; AID 651610, 2012; 1.1% of 360,000 active;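 active means mean replicate inhibition score of at least 50 and every replicate individually at or above 50; inconclusive means only one of the two criteria met; inactive means mean below 50 and not all replicates reaching 50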;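 further: 0% = plate neutral controls and 100% = maraviroc near 300 nM; one replicate is shown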
CSC inhib: cancer stem cell viability inhibitors, primary screen, luminescence; cancer stem cell-like cells viability; AID 2717, 2010; 1.1% of 300,000 active; inhibition, % at 7.5 µM;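 active means mean at 75% or more and at least half the replicates too; inconclusive means mean and replicates disagree; tested in HMLE shEcad cells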;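 further: 0% = median of negative and 100% = median of positive control wells; the first replicate is given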
UUG fidelity: modulators of yeast start codon fidelity, primary screen, whole organism, S. cerevisiae, single point, plate reader | activity score, % at 18.7 µM | 0.13% of 350,000 active | S. cerevisiae UUG-firefly luciferase reporter, luminescence/redox ratio;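 active means replicate mean at a twofold rise or more, about +100% in these data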;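 further: firefly luciferase made from a UUG start codon reports start codon fidelity; reporter light over untreated wells divided by growth signal over untreated wells; some hits fall short of that in this replicate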
eIF4H FP inh: human eIF4H binding inhibitors, primary screen, translation initiation inhibitor project, biochemical, uHTS, fluorescence polarization; Eukaryotic translation initiation factor 4H (Homo sapiens), Q15056; 0.94% of 290,000 active; inhibition, % at 35 µM; eIF4H fluorescence polarization binding assay;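 active means 50% or more with normal probe brightness, or confirmed in later tests; inconclusive means above 50% with abnormal brightness, or retests that disagree; inactive means below 50% or failed in later tests; about a fifth of its hits are not listed in these tables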;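 further: calls also rest on retests at 20 µM and on dose response follow-up; 0% = protein and probe with vehicle and 100% = probe without protein; strong numbers were not always called active; many hits fall short of the cut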
MT1-MMP act inh RFP: further read-out of MT1-MMP act inh, marked with its call; RFP signal change, %; measured here: RFP expression control read;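 0 = vehicle wells; hits needed this value within 50% of zero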
The depositor's hits bear a star; i = inactive; ? = inconclusive; . = not tested or not shown; & = joins results of further samples.

Each structure is followed by: CSC inhib | PABP FP inh | HIV Env fusion | eIF4H FP inh | Rce1 inhib | UUG fidelity | MT1-MMP act inh RFP | MT1-MMP act inh
COc1cc(CNC(=O)c2nc(Cn3nc(C)c(Br)c3C)no2)cc(OC)c1
  -2 | 7 | 4 | -12 | i | 0 | 0 | 2
COCc1c(C(=O)Nc2ccc(Cl)cc2F)oc2ccccc12
  9 | -1 | -18 | 0 | i | . | 0 | -2
O=C(CCNS(=O)(=O)c1ccccc1C(F)(F)F)NNC(=O)c1csc(N2CCOCC2)n1
  -11 | . | 2 | . | i | 12 | 5 | 2
CSCCC(NC(=O)c1cccc([N+](=O)[O-])c1)c1nc2ccccc2[nH]1 (configuration not stated)
  -7 | 8 | . | -5 | i | 0 | 1 | 0
CCC1Sc2ccc(S(=O)(=O)CCC(=O)Nc3ccc(NC(C)=O)cc3)cc2NC1=O (configuration not stated)
  -14 | 5 | 1 | 7 | i | -9 | 3 | 0
c1ccc(CCNc2ncnc3ccccc23)cc1
  -1 | 0 | 53 | -2 | i | . | -29 | -13
Cn1c(C(=O)N2CCCC(C(=O)c3ccc(C(F)(F)F)cc3)C2)cc(=O)n(C)c1=O (configuration not stated)
  1 | 6 | 4 | -5 | i | 7 | 5 | 7
COc1ccc(N(C(=O)CNC(=O)c2cccs2)C(C(=O)NCC2CCCO2)c2ccccc2)cc1OC (configuration not stated)
  9 | 6 | -6 | -5 | i | . | 1 | -3
COc1ccccc1NS(=O)(=O)c1ccc(O)c(C(N)=O)c1
  . | 4 | -22 | -16 | i | -12 | 7 | 7
COc1ccc(CC(=O)NNS(=O)(=O)c2ccc(F)cc2)cc1
  . | -2 | 11 | -4 | i | -14 | -4 | 3
O=C(NCc1nnc(SCC(=O)N2CCCCC2)o1)c1ccc(F)cc1
  9 | -6 | 10 | 1 | i | -12 | 0 | -1
C[C@H](NC(=O)C1CCN(S(=O)(=O)c2ccccc2)CC1)C(=O)NCc1cccc(C(F)(F)F)c1
  2 | -6 | 20 | -3 | i | 0 | -2 | 0
O=C(C[C@@H]1C/C=C/CC[C@@H](Cc2ccc(F)cc2)C(=O)OCCNC1=O)N[C@H](CO)Cc1ccccc1
  12 | . | -11 | . | . | 11 | -1 | 0
CC1CN(C(=O)CN2C(=O)NC3(CCCCCCC3)C2=O)CC(C)O1 (configuration not stated)
  -2 | 6 | 18 | -6 | i | -17 | 0 | -7
COc1cc(OC)c2c(C)cc(=O)oc2c1
  -10 | -3 | . | -4 | i | -11 | 4 | -6

Next section.
Each structure is followed by: CSC inhib | PABP FP inh | HIV Env fusion | eIF4H FP inh | Rce1 inhib | UUG fidelity | MT1-MMP act inh RFP | MT1-MMP act inh
C#CCOCCOCCOCCNc1nc(N2CCN(C(=O)[C@H](CCCCN)n3cc([C@@H](N)[C@H](C)CC)nn3)CC2)nc(N2CCN(C(=O)[C@H](CCCCN)n3cc([C@@H](N)CC(N)=O)nn3)CC2)n1
  -9 | . | 0 | . | . | -5 | -1 | -1
COc1ccc(C2CC(c3ccc(Cl)cc3)n3nc(N)nc3N2)cc1 (configuration not stated)
  -15 | 8 | -104 | -4 | i | -2 | 4 | -1
CSc1ccccc1NC(=O)CSCc1nc2sc(C)c(C)c2c(=O)[nH]1
  -14 | . | 7 | . | i | -17 | -5 | -20
COc1ccc(N2CCN(C(=O)CSc3nnc4c5cc(C)ccc5n(C)c4n3)CC2)cc1
  -4 | 4 | . | 9 | i | 14 | 3 | -3
COc1ccc(C(=O)CSc2nnc3ccc(-c4ccccn4)nn23)cc1
  16 | 5 | 13 | -5 | i | -6 | 1 | -1
O=C(O)c1cc2cc(F)ccc2[nH]1
  3 | -7 | . | -9 | i | -19 | 1 | 2
O=C(/C=C1\SC(=O)N(CC(=O)Nc2ccc(F)cc2)C1=O)Nc1ccc(Cl)cc1
  2 | 4 | -14 | 5 | i | . | 8 | 7
CC(C)(C)c1nnc(N/N=C/c2cc(Br)ccc2O)n(N)c1=O
  112* | 0 | 4 | 17 | i | -34 | -19 | -1
Cc1ccc(-n2nc3c(c2NC(=O)C(C)(C)C)CSC3)c(C)c1
  0 | -2 | . | 4 | i | -13 | -2 | -1
O=C(CCCOc1ccc(Cl)cc1Cl)N1CCN(c2ccccn2)CC1
  29 | 0 | ? | -3 | i | -12 | -1 | 8
O=C(N/N=C/c1c[nH]c2ccccc12)c1cc(-c2cccc3ccccc23)n[nH]1
  65 | -16 | 3 | -5 | i | . | -9 | -5
O=C(OCC(=O)c1c[nH]c2ccccc12)c1ccc(Br)o1
  -2 | -12 | . | -12 | i | . | 2 | 3
N#Cc1c(N)n(CCc2ccc(F)cc2)c2nc3ccccc3nc12
  3 | 8 | . | 5 | i | 16 | -2 | -14
CC1(C)Oc2ccc3ccc(=O)oc3c2C[C@H]1O[C@@H]1O[C@H](CO)[C@@H](O)[C@H](O)[C@H]1O
  -8 | . | -5 | . | . | 11 | 3 | 1
CCc1nnc(NC(=O)CCc2c[nH]c3ccccc23)s1
  1 | -6 | 9 | -7 | i | -16 | 5 | 4

New compounds follow
Each structure is followed by: CSC inhib | PABP FP inh | HIV Env fusion | eIF4H FP inh | Rce1 inhib | UUG fidelity | MT1-MMP act inh RFP | MT1-MMP act inh
COc1ccccc1-c1nc(C#N)c(N2CCN(c3cccc(Cl)c3)CC2)o1
  5 | -2 | . | -10 | i | -22 | 0 | 6
Cc1ccc(S(=O)(=O)N2CCC(C(=O)NC3CC(C)(C)NC(C)(C)C3)CC2)cc1C
  2 | 1 | 4 | 0 | i | -18 | 1 | -1
O=C1CCC/C(=N\NC(=O)c2ccc(COc3ccccc3-c3ccccc3)cc2)C1
  5 | 4 | 8 | -12 | i | -11 | -5 | -5
COc1ccc(CCNC(=O)CCC(=O)Nc2ccc3nc(N4CCN(C)CC4)cc(C)c3c2)cc1OC
  -2 | ? | 0 | -8 | i | -6 | -2 | -5
COc1cccc(-c2nc(NC(C)C)c3ccccc3n2)c1O
  37 | -7 | 40 | 4 | i | -4 | -2 | -1
CC12CCC(C(=O)N(NC(=O)c3ccc(O)cc3)C1=O)C2(C)C (configuration not stated)
  -4 | -20 | -23 | -1 | i | -3 | 2 | 3
CCC(CC)C(=O)N1CCN(Cc2nc3ccccc3c(=O)[nH]2)CC1
  -3 | 2 | -4 | 1 | i | 7 | 2 | -1
COc1cc(NC(=O)C2CC2)c(OC)cc1NC(=O)CCC(=O)NC1CCN(Cc2ccccc2)CC1
  -4 | ? | 6 | -1 | i | . | 10 | 16
COc1cccc(NC(=S)NC2CC(C)CC(C)(C)C2)c1 (configuration not stated)
  . | . | 11 | . | . | -22 | -3 | 0
CCOCCCNC(=O)C1CCC(CNS(=O)(=O)c2ccc(Cl)cc2)CC1 (configuration not stated)
  -26 | -4 | . | -1 | i | -8 | 0 | 1
N#Cc1nccnc1N1CCN(C(=O)Nc2ccccc2)CC1
  -5 | -10 | 14 | 2 | i | . | 5 | 3
Cc1ccc(S(=O)(=O)Nc2ccc3c(c2)C(=O)N([C@@H](C)CO)C[C@@H](C)[C@@H](CN(C)CC2CC2)OCCCC[C@@H](C)O3)cc1
  . | . | 5 | . | . | 21&39 | -2 | -2
CCc1ccc(NC(=O)C(NS(=O)(=O)c2cccc3nsnc23)c2ccccc2)cc1 (configuration not stated)
  0 | 0 | . | -9 | i | -21 | -9 | -6
ClC1(Cl)CC1Cn1cnc2ccccc21 (configuration not stated)
  -5 | -10 | 13 | -9 | i | -4 | -1 | -9
CC(C)CC(CO)N1CCN(C(=O)c2ccccc2)CCC1=O (configuration not stated)
  -12 | . | -11 | . | i | -30 | 0 | -4

(further entries)
Each structure is followed by: CSC inhib | PABP FP inh | HIV Env fusion | eIF4H FP inh | Rce1 inhib | UUG fidelity | MT1-MMP act inh RFP | MT1-MMP act inh
CCCCOC(=O)c1ccc(NC(=O)C(=O)NCC2CCCO2)cc1 (configuration not stated)
  -3 | 6 | -62 | -1 | i | -9 | -1 | 4
Cc1n[nH]c(=O)c2c(NC(=O)CSc3nc4ccccc4c(=O)n3CCCO)oc(C)c12
  -29 | 9 | . | -10 | i | 3 | -1 | -11
Oc1ccccc1CNc1cnc2ccccc2c1
  14 | -17 | . | 14 | i | -6 | -11 | 1
CCOc1ccc(CCN2C(=S)N([C@@H](Cc3ccc(O)cc3)CN3CCC[C@@H]3CN3C(=S)NC[C@@H]3CC(C)C)C[C@@H]2Cc2ccccc2)cc1
  . | . | -148 | . | . | -19 | -9 | -5
CCC(C(=O)OCC(=O)NCc1ccc2c(c1)OCO2)c1ccccc1 (configuration not stated)
  -12 | . | . | . | . | 8 | 5 | 1
CS(=O)(=O)c1ccc(C(=O)Nc2ccccc2N2CCOCC2)c(Cl)c1
  -20 | -2 | 3 | -12 | i | . | 1 | -1
CC1CCc2nc(/C(C#N)=C/c3ccncc3)sc2C1 (configuration not stated)
  25 | 12 | -80 | 29 | i | . | -11 | -3
O=C(CN1CCN(c2ccccc2)CC1)Nc1cccc([N+](=O)[O-])c1
  8 | 11 | -4 | -2 | i | 0 | 1 | 5
COc1ccc(/C=C/C(O)=C2/C(=O)N(C)C3(C)CC2c2ccccc2O3)cc1 (configuration not stated)
  29 | 0 | 4 | -1 | i | -4 | -9 | -4
COc1ccccc1NS(=O)(=O)c1cc(NC(=O)CCc2nc3ccccc3c(=O)[nH]2)ccc1C
  -4 | . | 6 | . | . | -4 | -6 | -6
Cc1cc(C)nc(CCNC(=O)C2CCC(=O)N(Cc3ccccc3F)C2)n1 (configuration not stated)
  -8 | . | -7 | . | i | 5 | 4 | -1
CSc1ncccc1C(=O)OCC(=O)NC(C)CCc1ccccc1 (configuration not stated)
  -4 | . | . | . | . | -3 | -1 | -2
CCCN1C(=O)/C(=C/c2ccc(OCc3ccc(C(=O)O)cc3)c(OC)c2)NC1=S
  3 | . | 7 | . | i | -21 | 3 | -7
COc1ccc(-c2cn(CCO)c(-c3ccc(Cl)nc3)n2)cc1
  -10 | . | -70 | . | . | -13 | 4 | 3
COc1ccc(OC)c(NCc2nnc(-c3ccccc3)o2)c1
  . | 0 | 18 | -19 | i | -10 | 4 | 3

(listing goes on)
Each structure is followed by: CSC inhib | PABP FP inh | HIV Env fusion | eIF4H FP inh | Rce1 inhib | UUG fidelity | MT1-MMP act inh RFP | MT1-MMP act inh
CC(=O)N1c2ccc3ccccc3c2C(C)CC12CCCCC2 (configuration not stated)
  . | -5 | . | 4 | i | -14 | -7 | -8
Cc1cccc(NC(=O)NCC(c2ccc(F)cc2)N2CCN(C)CC2)c1 (configuration not stated)
  -2 | 10 | -4 | -10 | i | -10 | 6 | 5
CSc1ccc(CN2CCc3c([nH]c4ccccc34)C2)cc1
  11 | 8 | 19 | 18 | . | -6 | 2 | 4
CC(C)c1ccc(C2(O)C(=O)Nc3cc(Br)ccc32)c(O)c1 (configuration not stated)
  -2 | 10 | 13 | -3 | i | 7 | -1 | -2
COc1ccccc1NCC(O)COc1ccc(C(C)(C)C)cc1 (configuration not stated)
  46 | 2 | 7 | 17 | i | . | -1 | 9
c1ccc(COc2ccccc2CNC2CCCC2)cc1
  -14 | -7 | 35 | 1 | i | . | 2 | 0
